Compound activity from PubChem BioAssay.
KCNQ2 inh: KCNQ2 channel blockers in CHO-K1 cells – cell-based, FluxOR thallium flux, B-score, primary screen (AID 2156). O88943. 20 min; hits give low values; only compounds with negative scores are shown here; some inactives read as strong as hits. B-score at 10 µM. actives 1.1% (n = 310,000);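 active = fluorescence ratio B-score at most minus 3 library SDs, with starting brightness B-score within 2 library SDs, cut at about -5.5 in these data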
Target sequence (O88943 whole entry, looked up): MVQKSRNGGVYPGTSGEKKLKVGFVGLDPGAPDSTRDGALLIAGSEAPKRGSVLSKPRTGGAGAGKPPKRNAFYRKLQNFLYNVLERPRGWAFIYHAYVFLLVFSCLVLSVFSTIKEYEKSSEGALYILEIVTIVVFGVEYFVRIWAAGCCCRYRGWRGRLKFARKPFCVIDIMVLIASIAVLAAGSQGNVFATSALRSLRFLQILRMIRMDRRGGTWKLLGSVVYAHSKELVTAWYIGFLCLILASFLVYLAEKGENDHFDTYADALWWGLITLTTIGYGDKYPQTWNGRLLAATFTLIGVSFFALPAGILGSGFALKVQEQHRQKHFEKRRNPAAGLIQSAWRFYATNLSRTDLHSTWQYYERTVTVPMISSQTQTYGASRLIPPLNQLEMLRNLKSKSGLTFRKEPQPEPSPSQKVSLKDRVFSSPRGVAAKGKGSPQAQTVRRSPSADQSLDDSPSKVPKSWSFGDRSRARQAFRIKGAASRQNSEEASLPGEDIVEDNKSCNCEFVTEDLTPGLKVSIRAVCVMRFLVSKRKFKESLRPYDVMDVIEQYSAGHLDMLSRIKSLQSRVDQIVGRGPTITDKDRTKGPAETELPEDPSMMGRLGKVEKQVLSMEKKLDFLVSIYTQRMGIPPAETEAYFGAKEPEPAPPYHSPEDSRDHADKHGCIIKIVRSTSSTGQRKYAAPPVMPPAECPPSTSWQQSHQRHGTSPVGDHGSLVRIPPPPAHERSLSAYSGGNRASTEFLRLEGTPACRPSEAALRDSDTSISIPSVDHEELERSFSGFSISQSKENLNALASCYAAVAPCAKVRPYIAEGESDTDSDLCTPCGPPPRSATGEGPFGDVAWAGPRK
KCNQ2 inh baseline: further read-out of KCNQ2 inh, marked with its call; B-score; measured here: initial fluorescence intensity artifact check;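 brightness before thallium and not channel activity; 0 = typical well and far values either way flag optical interference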
* hit, by the source's call. These rows are one share of the data; count on the stated rates, not on these rows.

For Cc1cccc(-c2ncc(S(=O)(=O)C(C)(C)C)c(N)n2)c1 the results were KCNQ2 inh inactive and KCNQ2 inh baseline 0.56.
`C=CCOC(=O)C1=C(C)NC(C)=C(C(=O)OCC=C)C1c1cccs1` gave KCNQ2 inh inactive and KCNQ2 inh baseline -2.1.
`CCOC(=O)c1sc(NC(=O)CSc2n[nH]c(C)n2)nc1C` gave KCNQ2 inh inactive and KCNQ2 inh baseline 0.71.
`CCCCCCCN(C(=O)CCl)c1cccc(C)c1` gave KCNQ2 inh inactive and KCNQ2 inh baseline 0.05.
`CC1CC1C(=O)OCC(=O)NNC(=O)COc1ccc(Br)cc1` (stereo not given) gave KCNQ2 inh inactive and KCNQ2 inh baseline 0.13.
`Cc1cccc(C(C)C)c1NC(=O)COC(=O)CN1C(=O)C2CC=CCC2C1=O` (stereo not given) gave KCNQ2 inh inactive and KCNQ2 inh baseline 0.26.
Screening CCOc1ccc(C(=O)N2CCN(c3ccccn3)CC2)cc1 returned KCNQ2 inh inactive and KCNQ2 inh baseline -0.69.
COC(=O)CN1C(=O)S/C(=C/c2cc(C)n(C)c2C)C1=O was read as KCNQ2 inh inactive and KCNQ2 inh baseline 2.1.
`Cc1n[nH]c(=O)c2c(NC(=O)CSc3ccccc3Cl)oc(C)c12` gave KCNQ2 inh inactive and KCNQ2 inh baseline 0.04.
For CC(Sc1nc2ccccc2[nH]1)C(=O)O (stereo not given) the results were KCNQ2 inh inactive and KCNQ2 inh baseline -3.8.
O=C(CN1CC(c2ccccc2)CC1=O)OCc1ccccc1F (stereo not given) was read as KCNQ2 inh inactive and KCNQ2 inh baseline -0.5.
For O=[N+]([O-])c1cc(/C=N\Nc2ccccn2)ccc1Cl the results were KCNQ2 inh inactive and KCNQ2 inh baseline -0.56.
Cc1ccc2nc(-c3ccncc3)cc(C(=O)Nc3ccc(OC(F)F)cc3)c2c1 was read as KCNQ2 inh inactive and KCNQ2 inh baseline -1.1.
For COc1ccc(CN(CC2CCC(C(=O)O)CC2)C(=S)Nc2cc(C)cc(C)c2)cc1 (stereo not given) the results were KCNQ2 inh inactive and KCNQ2 inh baseline -0.87.
For Cc1ccccc1C(=O)NCC(=O)OC(C)C(=O)NCc1ccco1 (stereo not given) the results were KCNQ2 inh inactive and KCNQ2 inh baseline 0.18.
`O=C(C1=C[C@@H](c2coc3ccccc3c2=O)C[C@@H](OCc2ccc(CO)cc2)O1)N1CCN(Cc2ccccc2)CC1` gave KCNQ2 inh inactive and KCNQ2 inh baseline -0.34.
Screening CCOC(=O)C1CCN(C(=O)c2ccc(OCC(=O)Nc3cccc(C(F)(F)F)c3)c(OC)c2)CC1 returned KCNQ2 inh inactive and KCNQ2 inh baseline 0.43.
For CCN(CC)CCN1C(=O)C(=O)/C(=C(/O)c2c(C)[nH]c(C(=O)OC)c2C)C1c1ccc(OC)cc1 (stereo not given) the results were KCNQ2 inh inactive and KCNQ2 inh baseline 0.14.
For Cc1ccc2c(Cl)cc(Cl)c(OCC(=O)O)c2n1 the results were KCNQ2 inh inactive and KCNQ2 inh baseline -1.4.
`COc1ccc(/C=N/Nc2nc(N3CCCCC3)nc(N3CCCCC3)n2)cc1[N+](=O)[O-]` gave KCNQ2 inh inactive and KCNQ2 inh baseline 0.42.
`CC1=C(C(=O)Nc2ccccc2C)C(c2ccc(C)o2)n2c(s/c(=C/c3ccccc3)c2=O)=N1` (stereo not given) gave KCNQ2 inh inactive and KCNQ2 inh baseline -1.1.
`CC(=O)Nc1nc(C)c(Oc2ccc(C)cc2)c(=O)[nH]1` gave KCNQ2 inh inactive and KCNQ2 inh baseline -1.8.
Screening O=C(N/N=C1\C2CN3CCN(C2)CC1(c1ccccc1)C3)c1ccc(F)cc1 returned KCNQ2 inh inactive and KCNQ2 inh baseline -0.29.
Screening O=C1CCC/C(=N/NC(=O)c2ccc(CN3c4cccc5cccc(c45)S3(=O)=O)cc2)C1 returned KCNQ2 inh inactive and KCNQ2 inh baseline 1.7.
Cc1ccccc1N(C(=O)Cn1nnc2ccccc21)C(C(=O)NCc1ccco1)c1ccncc1 (stereo not given) was read as KCNQ2 inh inactive and KCNQ2 inh baseline 1.6.
`Cc1nnn(C23CC4CC(CC(CC(=O)Nc5ccc(C)c(Cl)c5)(C4)C2)C3)n1` gave KCNQ2 inh inactive and KCNQ2 inh baseline 0.43.
Screening Cc1onc(-c2c(F)cccc2Cl)c1C(=O)NCc1ccccc1 returned KCNQ2 inh inactive and KCNQ2 inh baseline -1.7.
`Cc1nc(N/N=C/c2ccccc2)nc(N(C)c2ccccc2)c1[N+](=O)[O-]` gave KCNQ2 inh inactive and KCNQ2 inh baseline -1.7.
CC(c1cccs1)N(Cc1ccco1)C(=S)Nc1ccc(F)c(Cl)c1 (stereo not given) was read as KCNQ2 inh inactive and KCNQ2 inh baseline -1.1.
Screening CC(=O)c1cccc(S(=O)(=O)N(CCCO)Cc2cc3ccc(C)cc3[nH]c2=O)c1 returned KCNQ2 inh inactive and KCNQ2 inh baseline -0.6.
Screening Fc1ccc(NC(=S)Nc2ccc(Br)cc2)cc1 returned KCNQ2 inh inactive and KCNQ2 inh baseline 0.61.
Screening O=C(COC(=O)c1ccc(Br)o1)NCc1ccco1 returned KCNQ2 inh inactive and KCNQ2 inh baseline -0.3.
For COCc1ccc(CN2CCC(CO)(CC3CCCCO3)CC2)o1 (stereo not given) the results were KCNQ2 inh inactive and KCNQ2 inh baseline 0.77.
`COc1ccc(C/C(N)=N/OC(=O)c2ccco2)cc1OC` gave KCNQ2 inh inactive and KCNQ2 inh baseline 1.1.
Screening Cc1ccc(C)c(S(=O)(=O)N/N=C/c2ccc(N3CCOCC3)cc2)c1 returned KCNQ2 inh inactive and KCNQ2 inh baseline 1.6.
For Cc1ccc(C(=O)O)cc1NC(=O)C1CCCN1S(=O)(=O)c1cccc2nsnc12 (stereo not given) the results were KCNQ2 inh inactive and KCNQ2 inh baseline -1.6.
`CCC1(C(=O)c2ccccc2)C(c2ccc([N+](=O)[O-])cc2)C1(C(=O)OC)C(=O)OC` (stereo not given) gave KCNQ2 inh inactive and KCNQ2 inh baseline -0.37.
`O=C(NCC1CCCO1)c1ccccc1-c1nc(-c2ccc(Cl)cc2)no1` (stereo not given) gave KCNQ2 inh inactive and KCNQ2 inh baseline -0.29.
Screening Cc1c2cnn(-c3ccccc3)c(=O)c2c(C)n1CCCC(=O)N1CCN(C2CCCCC2)CC1 returned KCNQ2 inh inactive and KCNQ2 inh baseline -0.01.
CCc1nc2oc3ccc(C)cc3c(=O)c2cc1C(=O)OC was read as KCNQ2 inh inactive and KCNQ2 inh baseline -2.1.
For N#Cc1c(-c2ccc(Cl)cc2)cc(-c2ccccc2)nc1SCC(=O)O the results were KCNQ2 inh inactive and KCNQ2 inh baseline 1.6.
Screening O=C(N/N=C/c1cccc([N+](=O)[O-])c1)c1cccs1 returned KCNQ2 inh inactive and KCNQ2 inh baseline 3.3.
For COc1ccc(S(=O)(=O)NC(C)C(=O)NCc2ccncc2)cc1C (stereo not given) the results were KCNQ2 inh inactive and KCNQ2 inh baseline 1.7.
For Cc1ccccc1NC(=O)c1ccc(NC(=O)c2ccco2)cc1 the results were KCNQ2 inh inactive and KCNQ2 inh baseline 0.34.
For CC(CN1CCCCC1)OC(=O)c1ccco1 (stereo not given) the results were KCNQ2 inh inactive and KCNQ2 inh baseline -0.44.
`CCCNC(=O)c1ccc(COc2ccc(C)cc2)o1` gave KCNQ2 inh inactive and KCNQ2 inh baseline 0.05.
COc1ccc(C2C(C(N)=O)=C(C)Nc3nc(CCCO)nn32)cc1OC (stereo not given) was read as KCNQ2 inh inactive and KCNQ2 inh baseline 0.65.
Screening CC(C)c1ccccc1NC(=O)COc1ccc2c(=O)c(Oc3ccc4ccccc4c3)coc2c1 returned KCNQ2 inh inactive and KCNQ2 inh baseline -0.74.

Five structures already listed, sorted by number of heavy atoms, high to low.
Screening CC(C)c1ccccc1NC(=O)COc1ccc2c(=O)c(Oc3ccc4ccccc4c3)coc2c1 returned KCNQ2 inh inactive and KCNQ2 inh baseline -0.74.
For COc1ccc(S(=O)(=O)NC(C)C(=O)NCc2ccncc2)cc1C (stereo not given) the results were KCNQ2 inh inactive and KCNQ2 inh baseline 1.7.
CCc1nc2oc3ccc(C)cc3c(=O)c2cc1C(=O)OC was read as KCNQ2 inh inactive and KCNQ2 inh baseline -2.1.
`CCCNC(=O)c1ccc(COc2ccc(C)cc2)o1` gave KCNQ2 inh inactive and KCNQ2 inh baseline 0.05.
Screening O=C(N/N=C/c1cccc([N+](=O)[O-])c1)c1cccs1 returned KCNQ2 inh inactive and KCNQ2 inh baseline 3.3.

(listing goes on)
Screening O=C(NCc1cccs1)C1CCCN(S(=O)(=O)c2ccc(Br)s2)C1 (stereo not given) returned KCNQ2 inh inactive and KCNQ2 inh baseline -0.47.
Screening COc1c(F)c(F)c(C(=O)O)c(Nc2ccccc2C)c1F returned KCNQ2 inh inactive and KCNQ2 inh baseline 0.78.
`COC(=O)c1sc(SC)c(-c2ccon2)c1C` gave KCNQ2 inh inactive and KCNQ2 inh baseline -1.2.
`N#Cc1ccc(N/N=C/c2cn(-c3ccccc3)nc2-c2ccccc2)c([N+](=O)[O-])c1` gave KCNQ2 inh inactive and KCNQ2 inh baseline -1.7.
`CC(/C=C/c1ccco1)=N/NC(=O)c1ccccc1Cl` gave KCNQ2 inh inactive and KCNQ2 inh baseline -0.46.
`CCCCC(c1nnnn1C1CCCC1)N1CCN(C2CCCC2)CC1` (stereo not given) gave KCNQ2 inh inactive and KCNQ2 inh baseline 0.31.
COC(=O)c1ccc(NC(=O)CSCc2ccccc2C)cc1 was read as KCNQ2 inh inactive and KCNQ2 inh baseline -1.4.
CCOc1ccc2nc(N(CCCN(C)C)C(=O)c3ccc4c(c3)CCCC4)sc2c1 was read as KCNQ2 inh inactive and KCNQ2 inh baseline -1.9.
O=C(CSc1ncn(-c2ccccc2)n1)Nc1ccc2c(c1)OCCO2 was read as KCNQ2 inh inactive and KCNQ2 inh baseline 0.02.
For COc1ccc(OC)c2sc(N(CCN(C)C)C(=O)/C=C/c3cccs3)nc12 the results were KCNQ2 inh inactive and KCNQ2 inh baseline 0.96.
`COc1ccc(NC(=O)CN2CCN(CC(=O)Nc3ccccc3F)CC2)c(OC)c1` gave KCNQ2 inh inactive and KCNQ2 inh baseline 1.1.
For Cc1csc(CN(C)C(=O)CC2C(=O)NCCN2Cc2ccc(F)c(F)c2)n1 (stereo not given) the results were KCNQ2 inh inactive and KCNQ2 inh baseline 1.2.

4 consecutive entries from above, quoted:
For Cc1cccc(-c2ncc(S(=O)(=O)C(C)(C)C)c(N)n2)c1 the results were KCNQ2 inh inactive and KCNQ2 inh baseline 0.56.
`C=CCOC(=O)C1=C(C)NC(C)=C(C(=O)OCC=C)C1c1cccs1` gave KCNQ2 inh inactive and KCNQ2 inh baseline -2.1.
`CCOC(=O)c1sc(NC(=O)CSc2n[nH]c(C)n2)nc1C` gave KCNQ2 inh inactive and KCNQ2 inh baseline 0.71.
`CCCCCCCN(C(=O)CCl)c1cccc(C)c1` gave KCNQ2 inh inactive and KCNQ2 inh baseline 0.05.

Next structures follow.
CC(C)(C)N1CC(C(=O)Nc2ccc(S(N)(=O)=O)cc2)CC1=O (stereo not given) was read as KCNQ2 inh inactive and KCNQ2 inh baseline 3.
Screening CC(=O)N1c2ccc(S(=O)(=O)NCC3CCC(C(=O)NCc4ccco4)CC3)cc2CC1C (stereo not given) returned KCNQ2 inh inactive and KCNQ2 inh baseline -2.6.
For Cc1ccccc1CNC(=O)C1CCCN(c2cnccn2)C1 (stereo not given) the results were KCNQ2 inh inactive and KCNQ2 inh baseline 0.68.
CCOC(=O)c1ccc(NC(=O)CC2S/C(=N/N=C3/NC(=O)CS3)NC2=O)cc1 (stereo not given) was read as KCNQ2 inh inactive and KCNQ2 inh baseline -0.15.
Screening Cc1ccc(-c2n[nH]c(=S)n2/N=C/C=C/c2ccccc2[N+](=O)[O-])cc1 returned KCNQ2 inh inactive and KCNQ2 inh baseline -1.7.
Screening CCOC(=O)Cn1nc2sc3ccccc3n2c(=O)c1=O returned KCNQ2 inh inactive and KCNQ2 inh baseline -0.03.
For Cc1ccc(Sc2ncccc2C(=O)O)cc1C the results were KCNQ2 inh inactive and KCNQ2 inh baseline 0.79.
CSc1nc2ccc3nc(NC(=O)c4ccc(Cl)s4)sc3c2s1 was read as KCNQ2 inh inactive and KCNQ2 inh baseline 0.52.
`Cc1cc(C(=O)NC2CCCC2)c2ccccc2n1` gave KCNQ2 inh inactive and KCNQ2 inh baseline -0.51.
c1coc(CN2CNc3nc4ccccc4n3C2)c1 was read as KCNQ2 inh inactive and KCNQ2 inh baseline 2.7.
CCOC(=O)C1=C(C)N(CC)C(=S)NC1c1ccccc1OC(F)F (stereo not given) was read as KCNQ2 inh inactive and KCNQ2 inh baseline 0.11.
`CCOc1ccc(N=C2Sc3nc4ccc(C)cc4cc3CN2CCOC)cc1` gave KCNQ2 inh inactive and KCNQ2 inh baseline -2.5.
CC1(C)CC(=O)C(C=NCCC2=CCCCC2)=C(O)C1 was read as KCNQ2 inh inactive and KCNQ2 inh baseline 1.9.
CN(C(=O)COC(=O)c1ccccc1NC(=O)c1ccco1)C1CCS(=O)(=O)C1 (stereo not given) was read as KCNQ2 inh inactive and KCNQ2 inh baseline 1.4.
Screening Cn1c(CNC(=O)c2cccs2)nnc1SCC(=O)Nc1ccc(Cl)cc1 returned KCNQ2 inh inactive and KCNQ2 inh baseline 0.85.
`O=C(NCc1ccccn1)c1n[nH]c(=O)c2ccccc12` gave KCNQ2 inh inactive and KCNQ2 inh baseline 0.22.
O=c1[nH]c(C2CCN(S(=O)(=O)/C=C/c3ccccc3)CC2)nc2c1nnn2Cc1ccccc1 was read as KCNQ2 inh inactive and KCNQ2 inh baseline -1.5.
For COc1ccc(C(=O)Nc2ccccc2C(=O)NC(C)C)cc1OC the results were KCNQ2 inh inactive and KCNQ2 inh baseline 0.19.
`CCOc1ccccc1NC(=O)Nc1ccc2c(c1)CCC2` gave KCNQ2 inh inactive and KCNQ2 inh baseline -0.04.
